MARV entry inh = inhibitors of Marburg virus binding or cell entry; Marburg virus pseudotyped entry inhibition, cell reporter; control for the full effect not named in the record; about a third of the inactives were read at about 46 µM; Potency, µM (highest dose often 37.8 µM), for the others: top-dose activity change, negative = inhibition, actives largely listed as inhibitors; 300,000 compounds, 1.8% hits; active = well fitted inhibition curve with a large enough effect; inconclusive = small, poorly fitted or top-dose-only effect, or effect the other way; inactive = flat fitted curve, though single readings scatter; tested in HEK293 cells; about a fifth of its hits are not listed in these tables; note: % is set by controls: 0 for no effect and ±100 for the full control effect; luciferase read-out
LASV entry inh = Lassa virus entry inhibition. 300,000 compounds, 1.2% hits. Lassa virus pseudotype entry inhibition, cell reporter; control for the full effect not named in the record. AID 540256. Potency, µM (highest dose often 37.9 µM), without a hit: top-dose activity change, negative = inhibition, most hits filed as inhibitors; active means well fitted inhibition curve with a large enough effect; inconclusive means small, poorly fitted or top-dose-only effect, or effect the other way; inactive means flat fitted curve, though single readings scatter; tested in HEK293 cells; note: % is set by controls: 0 for no effect and ±100 for the full control effect; nearly all actives have a fitted effect of over 50% in size; luciferase read-out
Cruzain inh Det = inhibitors of Trypanosoma cruzi cruzain with detergent; 200,000 compounds, 0.43% hits; Potency, µM, for inactives: max response, negative = inhibition, actives largely listed as inhibitors; purified cruzain, Z-FR-AMC fluorescence, 0.01% Triton; P25779;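 note: plate controls were neutral wells for no effect and buffer without enzyme for full effect; nearly all actives have a fitted effect of over 40% in size; top concentration of the series not given in the record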
Target sequence (P25779 123-467 limits assumed): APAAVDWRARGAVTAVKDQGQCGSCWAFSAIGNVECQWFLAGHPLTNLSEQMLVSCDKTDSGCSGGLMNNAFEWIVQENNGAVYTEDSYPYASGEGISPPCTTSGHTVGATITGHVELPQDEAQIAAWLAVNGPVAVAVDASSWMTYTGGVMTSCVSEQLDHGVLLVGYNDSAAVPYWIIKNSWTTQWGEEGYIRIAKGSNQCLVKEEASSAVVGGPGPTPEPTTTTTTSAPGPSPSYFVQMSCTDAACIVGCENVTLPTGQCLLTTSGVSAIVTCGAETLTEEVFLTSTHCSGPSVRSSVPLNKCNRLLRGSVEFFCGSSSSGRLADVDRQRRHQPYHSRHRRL
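Sodium acetate buffer (100 mM, pH 5.5) containing 5 mM DTT and 0.01% Triton X-100 hosted 1.5 nM cruzain and test compound for 15 min at room temperature. Cleavage of 2 uM Z-FR-AMC was then tracked by fluorescence.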
NS1 inh = influenza NS1 inhibition. S. cerevisiae slowed by influenza A NS1, growth recovery by OD600. Potency, µM (top dose mostly 46.1 µM), inactives show at the highest dose activity, positive = more growth. 270,000 compounds, 0.4% hits. AID 2326; active means well fitted rising curve with a large enough effect; inconclusive means small, poorly fitted or top-dose-only effect; inactive means no such curve, though single readings can be large or run the other way; note: nearly all actives have a fitted effect of over 50% in size
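Recovery from NS1-induced slow growth read by OD600 in budding yeast switched to galactose assay medium (pH 6.0, -URA) at 1:100 dilution. Compound 23 nl per well; the matching strain lacking NS1 serves as control.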
Cruzain inh noDet = inhibitors of Trypanosoma cruzi cruzain without detergent | P25779 | purified cruzain, Z-FR-AMC fluorescence, no detergent | Potency, µM, for the others: max response, negative = inhibition, most hits filed as inhibitors | 200,000 compounds, 2.3% hits | AID 1476;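 note: plate controls were enzyme without inhibitor for no effect and buffer without enzyme for full effect; nearly all actives have a fitted effect of over 40% in size; top concentration of the series not given in the record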
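Detergent-free condition (0.00005% Triton X-100) in acetate buffer pH 5.5 with DTT. 1.5 nM enzyme and compound were pre-mixed 15 min, then 2 uM Z-FR-AMC substrate added; reaction progress from fluorescence change between first and third reads (60 s).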
SARS PLpro yeast = inhibitors of SARS-CoV papain-like protease in yeast; S. cerevisiae expressing SARS-CoV PLpro, growth rescue; control for the full effect not named in the record; 330,000 compounds, 0.19% hits; Potency, µM (top dose mostly 32.9 µM), without a hit: at the top dose activity, positive = growth rescue; active means well fitted rising curve with a large enough effect; inconclusive means small, poorly fitted or top-dose-only effect; inactive means no such curve, though single readings can be large or run the other way; note: 0% is about no effect; nearly all actives have a fitted effect of over 55% in size; growth read by luminescence after 48 h
RE007 growth inh = less growth of the S. pombe RE007 Vpr strain; S. pombe RE007 Vpr strain, BacTiter-Glo ATP luminescence, 24 h; control for the full effect not named in the record; Potency, µM (highest dose often 92.2 µM), without a hit: at the highest dose activity change, negative = less growth; 360,000 compounds, 0.21% hits; AID 651644; active = well fitted falling curve with a large enough effect; inconclusive = small, poorly fitted or top-dose-only effect; inactive = no such curve, though single readings can be large or run the other way;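 note: % is set by controls: 0 for no effect and ±100 for the full control effect; nearly all actives have a fitted effect of over 50% in size; the assay follows cell death caused by Vpr and the record does not say whether a fall means rescue or toxicity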
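Fission yeast RE007 carrying one integrated HIV-1 vpr copy, seeded at OD 0.01 in PMG+AL medium with 23 nL pinned compound. Grown 24 h at 30 degrees; viability read by BacTiter-Glo luminescence after 5 min.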
2A StopGo = lowers the luciferase signal of an FMDV 2A StopGo reporter; Potency, µM (doses to about 57.9 µM), for the others: at the top dose signal change, negative = less light; 410,000 compounds, 1.2% hits; human cells with a luciferase reporter of 2A StopGo recoding; control for the full effect not named in the record; active = well fitted falling curve with a large enough effect; inconclusive = small, poorly fitted or top-dose-only effect; inactive = no such curve, though single readings can be large or run the other way; tested in HEK293T cells; note: % is set by controls: 0 for no effect and ±100 for the full control effect; nearly all actives have a fitted effect of over 45% in size; luciferase light after 4 h
The depositor's hits bear a star; ? = inconclusive; · = not tested or not shown; & = joins results of further samples; [ ] = dose if it differs, or a comment. Unless noted, calls come from the whole dose curve; as a rule, active = well fitted curve in the direction sought with a large enough effect; inconclusive = small, poorly fitted or top-dose-only effect, or another doubt; inactive = no such curve, though single readings can be large; an effect the other way counts as inactive or inconclusive. Potency is the fitted concentration of half-maximal effect.

SMILES | MARV entry inh | LASV entry inh | Cruzain inh Det | NS1 inh | Cruzain inh noDet | SARS PLpro yeast | RE007 growth inh | 2A StopGo
S=c1[nH]nc(-c2ccccc2)n1/N=C/c1c[nH]c2ccccc12 | 11% | ? | 1.0% | 21% | ? | -10% | 2% | -13%
CC1(C)CC(N(CCc2ccccc2)Cc2ccccc2)CCO1 (stereo unspecified) | ? | ? | · | 5% | · | 0% | 0% | ?
CCC(c1nnc(SCC(=O)N2CC(=O)Nc3ccccc32)n1Cc1ccccc1)N(C)C (stereo unspecified) | 2%&24% | 5% | -2.7% | -2% | 0% | 2% | -13% | -10%
CNc1n[nH]c(=S)s1 | 3% | 11% | · | 2% | · | 2% | 0% | -4%
CCOC(=O)C1CCCN(C(=O)c2cccc(NC(=O)c3nsc4ccccc34)c2)C1 (stereo unspecified) | · | ? | -1.0% | · | 9% | · | · | 15%
O=c1cc(CN2CCN(c3ccc(O)cc3)CC2)nc2scc(-c3ccccc3)n12 | -1% | -18% | · | · | · | -1% | -15% | ?
COc1ccc(-c2nc(=S)[nH][nH]2)cc1 | 11% | -10% | 5.7% | 12% | -2% | 4% | 9% | 3%
O=c1c(=O)n(-c2cccc(Cl)c2)ccn1Cc1cccc(F)c1 | · | 5%[46.1 µM] | -8.2% | · | 2% | · | · | -1%
COc1ccc(-c2nc3sc(CCNS(=O)(=O)c4ccccc4)c(C)n3n2)cc1 | · | -30%[46.1 µM] | -3.7% | · | -3% | · | · | ?
CN(C)C(CNC(=O)CCc1nc2ccccc2s1)c1ccccc1 (stereo unspecified) | ? | -28% | · | -4% | · | -3% | 16% | -15%
CC1CCN(C2=NC(=O)/C(=C/c3cn(-c4ccccc4)nc3-c3cccc(S(=O)(=O)N(C)C)c3)S2)CC1 | ? | -24% | 2.9% | 11% | 1% | 8% | -3% | -3%
Cc1cccc(OCc2nnc(SCC(=O)N3c4ccccc4CC3C)n2C)c1C (stereo unspecified) | -3% | ? | -2.0% | -4% | ? | -4% | 3% | ?
CCCC(=O)Nc1nnc(S(=O)(=O)N2CCCC2)s1 | · | · | · | 5% | · | 5% | 21% | 0%
Cc1noc(C)c1CSc1nnc(-c2ccccc2)o1 | 3% | -2% | · | · | · | -1% | 29% | 23%
Cc1nc2c(-c3ccccc3)cnn2c(N2CCOCC2)c1C | ? | 0% | · | -9% | · | -1% | 1% | 13%
Cc1cc[n+](CCC(=O)O)c2ccccc12 | 28%[46.1 µM] | -5% | 1.4% | 7% | -2% | -1% | -3% | 2%
O=C(O)C(C=C(Cl)Cl)N1CCOCC1 (stereo unspecified) | 9%[46.1 µM] | -12%[46.1 µM] | · | · | · | · | 13% | -16%
CCc1cccc(CC)c1NC(=O)CN1CCN(c2ccccc2)CC1 | -13% | ? | 1.8% | -18% | 8% | 7.1µM* | 3% | -12%
C=CCNC(=S)N1CCN(CCN=CC2=C(O)CC(c3ccc(Cl)cc3)CC2=O)CC1 (stereo unspecified) | -3%[46.1 µM] | · | · | · | · | 0% | -5% | -20%
O=C(/C=C/c1ccc(F)cc1)Nc1cccc(S(=O)(=O)N2CCOCC2)c1 | ? | -27% | · | · | · | -10% | 0% | -21%
CCOC(=O)N1CCN(S(=O)(=O)c2ccc(Cl)cc2)CC1 | · | · | · | -27% | · | 7% | 14% | -7%
COc1ccccc1OCCSc1nc2ccccc2n1CCO | -6%[46.1 µM] | -2% | · | 0% | · | -1% | 31% | 19%
Cc1cc(N2CCOCC2)nc2ccc(NC(=O)CCC(=O)N3CCCC(C)C3)cc12 (stereo unspecified) | 22% | 1% | -6.1% | 0% | 4% | -8% | -7% | -2%
CCCCNC(=O)Nc1nnc(-c2ccc(Cl)cc2)o1 | -3% | 25% | 3.6% | -7% | ? | 1% | -14% | -1%
CCCCNC(=O)COn1nnc2ccc(S(=O)(=O)N3CCOCC3)cc21 | 2% | ? | · | · | · | -3% | 10% | -2%
O=C(CC1=NC2(CCCC2)Cc2ccccc21)N1CCOCC1 | ? | -13% | 4.2% | -2% | -4% | 8% | -3% | ·
Cc1ccc(-n2nnc3c(sc4nc(C)c(C)cc43)c2=O)cc1Cl | -21%[46.1 µM] | 10%[46.1 µM] | 2.6% | · | 13% | · | · | 13%
CCNC(=O)Nn1c(C)nnc1C | -4% | 14% | -0.6% | -20% | 6% | 1% | 18% | 3%
CCOc1ccc(C2C(C#N)=C(N)Oc3cc(C)[nH]c(=O)c32)cc1OC (stereo unspecified) | 14% | 2% | · | 2% | · | 2% | 4% | 3%
COC(=O)CC(NS(=O)(=O)c1cccs1)c1ccc2c(c1)OCO2 (stereo unspecified) | -1%[46.1 µM] | 20%[46.1 µM] | · | -1% | · | ? | 5% | -21%
CCc1ccc(NC(=O)NCCN2CCCCC2)cc1 | · | · | · | 13% | · | 6% | 1% | 10%
CCOc1ccc(OCC)c(NC(=O)CCn2c(=O)oc3ccccc32)c1 | -5% | ? | 4.4% | -13% | 6% | 9% | -18% | -21%
COCCn1c(SCC(=O)N2CCCCC2)nc2cccnc21 | -23%[46.1 µM] | 1% | -0.9% | -5% | 3% | 4% | -6% | -13%
CC(=O)Nc1ccc(NC(=S)NC(=O)C2CCCC2)cc1 | 1%[46.1 µM] | -2%[46.1 µM] | · | 9% | · | 3% | -8% | 25%
Cc1cc2cc(CNC(=S)NCc3ccccc3)ccc2n1C | -19%[46.1 µM] | -17%[46.1 µM] | · | · | · | -1% | -6% | 11%
COc1ccc(NC(=O)CN(C)C(=O)c2csc3c2CCCC3)cc1 | 11% | -8% | · | · | · | -4% | -18% | 4%
O=c1c2ccccc2nc(/C=C/c2cccc([N+](=O)[O-])c2)n1CCO | ? | ? | -4.6% | -6% | 2% | 9% | 4% | -25%
COc1ccc(C(=O)[C@H]2[C@H]3C(=O)N(c4ccccc4)C(=O)[C@H]3C3C=CC=NN32)cc1 (stereo partly specified) | -5%[14.2 µM] | 6% | · | 15% | · | 2% | -22% | -24%
O=C(Nc1cccc(C(=O)OCc2cc(=O)n3c4c(sc3n2)CCCC4)c1)c1cccc(Cl)c1 | · | ? | 1.4% | · | -5% | · | · | -17%
C[C@@H](C(=O)N1CCNCC1)n1cc(CCC(=O)O)nn1 | · | · | · | -2% | · | 0% | -11% | -16%
Cc1cccc(-n2c(SCC(=O)Nc3ncc(Cl)cc3Cl)nc3ccccc32)c1 | 1.2µM* | 0.82µM* | -6.5% | 7% | ? | -29% | -2% | 0%
COc1ccc(C2CC(c3ccc(OC)c(OC)c3)=NN2S(C)(=O)=O)cc1 (stereo unspecified) | · | · | · | -16% | · | 1% | 15% | 12%
COc1ccc(CCNC(=O)/C=C/C(=O)O)cc1OC | · | · | · | 5% | · | -2% | 6% | -4%
CCc1ccc(C2c3c(-c4cc(C)ccc4O)n[nH]c3C(=O)N2Cc2cccnc2)cc1 (stereo unspecified) | 13µM* | ? | -17% | · | -14% | · | · | ?
Oc1ccc(Oc2ccc(Oc3ccc(O)cc3)cc2)cc1 | · | · | · | -76% | · | -10% | 11% | 31%[activator]
COc1ccc(/C=C(/NC(=O)c2ccccc2)C(=O)N/N=C/c2sccc2C)cc1 | 9%[46.1 µM] | ? | -10% | 3% | ? | -10% | -5% | -6%
CCc1noc(C)c1C(=O)NCCc1c[nH]c2ccccc12 | ? | ? | · | · | · | · | 10% | -1%
CCOC(=O)N1CCN(C(=O)C2CCCN(S(=O)(=O)c3ccc(OCC)cc3)C2)CC1 (stereo unspecified) | ? | ? | · | -16% | · | -6% | 5% | 0%
CC(=O)c1ccc2c(c1)OCO2 | 12% | -1% | 0.1% | 26% | -18% | -2% | -7% | -21%
O=C(CSCc1ccccc1Cl)NNC(=S)Nc1ccccc1 | 13% | 9% | -6.7% | 18% | 4% | 17% | -2% | 80%[activator]
O=C(CSc1nc2ccccc2c(=O)n1CC1CCCO1)Nc1ccccc1Cl (stereo unspecified) | -8%[46.1 µM] | 10% | · | 2% | · | -8% | 5% | 0%
CCCN=C1CC(C)(C)CC(=O)/C1=C(/O)CCCN1C(=O)c2ccccc2C1=O | -7%[46.1 µM] | 3%[46.1 µM] | · | · | · | 2% | -4% | -2%
COc1ccc(C(=O)N/C(=C\c2ccco2)C(=O)NCc2cccnc2)cc1 | 13% | 4% | -7.1% | 25% | -3% | -5% | 12% | -17%
COc1cccc(OC)c1C(=O)NC(=S)Nc1ccc(S(=O)(=O)Nc2nccs2)cc1 | -6%[46.1 µM] | -31% | · | 11% | · | 0% | 11% | 74%[activator]
N/C(=N\OC(=O)c1cccc(Br)c1)c1ccccn1 | · | · | · | -62% | · | -17% | -24% | -52%
CS(=O)(=O)N1CCN(c2ccccc2NC(=O)c2cccnc2Cl)CC1 | -11% | ? | 0.4% | -2% | 7% | 4% | -14% | -5%
CC(C)(C)N(NC(=O)Nc1ccccc1)C(=O)c1ccccc1Cl | -2% | 5% | 12% | 2% | 0% | -13% | 10% | -10%
CC1(C)C(=O)Nc2ccccc2N1C(=O)COc1ccc(S(=O)(=O)N2CCOCC2)cc1Cl | 20% | 3% | -2.9% | -11% | 19% | -1% | -3% | -24%
O=C(O)c1ccc(-n2nncc2-c2ccco2)cc1 | 5%[46.1 µM] | 10% | · | 19% | · | -2% | -13% | -6%
Cc1cc(C)c(C)c(OCCOCCNCc2ccccc2)c1 | ? | -20% | -1.9% | -22% | 5% | -12% | 3% | 0%
COc1ccc(Nc2ccccc2)c(C)c1 | -3% | 4% | -2.0% | 5% | -9% | -1% | -8% | 6%

Source: PubChem BioAssay (National Center for Advancing Translational Sciences (NCATS))

Hits appear at their usual frequency; any-hit rate near 4.7%.
